# Screening data from PubChem BioAssay.
# SARS PLpro yeast: SARS-CoV PLP inhibition in yeast | S. cerevisiae expressing SARS-CoV PLpro, growth rescue; control for the full effect not named in the record | Potency, µM (titrated, usually from 32.9 µM), for the others: at the top dose activity, positive = growth rescue | actives 0.19% (n = 330,000) | AID 485353; active means well fitted rising curve with a large enough effect; inconclusive means small, poorly fitted or top-dose-only effect; inactive means no such curve, though single readings can be large or run the other way; note: 0% is about no effect; nearly all actives have a fitted effect of over 55% in size; growth read by luminescence after 48 h
# RE007 growth inh: less growth of the S. pombe RE007 Vpr strain. S. pombe RE007 Vpr strain, BacTiter-Glo ATP luminescence, 24 h; control for the full effect not named in the record. Potency, µM (top dose mostly 92.2 µM), inactives show at the top dose activity change, negative = less growth. actives 0.21% (n = 360,000); active = well fitted falling curve with a large enough effect; inconclusive = small, poorly fitted or top-dose-only effect; inactive = no such curve, though single readings can be large or run the other way;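 note: % is set by controls: 0 for no effect and ±100 for the full control effect; nearly all actives have a fitted effect of over 50% in size; the assay follows cell death caused by Vpr and the record does not say whether a fall means rescue or toxicity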
#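 Fission yeast RE007 carrying one integrated HIV-1 vpr copy, seeded at OD 0.01 in PMG+AL medium with 23 nL pinned compound. Grown 24 h at 30 degrees; viability read by BacTiter-Glo luminescence after 5 min.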
# 2A StopGo: lowers the luciferase signal of an FMDV 2A StopGo reporter; human cells with a luciferase reporter of 2A StopGo recoding; control for the full effect not named in the record; Potency, µM (series often up to 57.9 µM), without a hit: at the top dose signal change, negative = less light; actives 1.2% (n = 410,000); AID 1159524; active = well fitted falling curve with a large enough effect; inconclusive = small, poorly fitted or top-dose-only effect; inactive = no such curve, though single readings can be large or run the other way; tested in HEK293T cells; note: % is set by controls: 0 for no effect and ±100 for the full control effect; nearly all actives have a fitted effect of over 45% in size; luciferase light after 4 h
# Starred values were filed as active, the others as inactive; ? = inconclusive; [ ] = remark or other dose. Potency is the fitted concentration of half-maximal effect. Some of the compounds tested; the hit share may differ from the screen's.
1) O=C(C[C@H]1C/C=C\CC[C@H](Cc2ccc(F)cc2)C(=O)OCCNC1=O)NCCO
2) COc1ccc(CNC(=O)C[C@H]2C[C@H](C(=O)N(C(C)C)C(C)C)[C@@]3(C)c4[nH]c5cc(-c6ccco6)ccc5c4CCN3C2=O)cc1OC
3) Cc1ccc(S(=O)(=O)N2CCN(C(=O)COC(=O)c3ccc(Cl)nc3)CC2)c(C)c1
4) C#CCOCCOCCOCCNc1nc(N2CCN(C(=O)[C@H]([C@@H](C)CC)n3cc(CCCCN)nn3)CC2)nc(N2CCN(C(=O)[C@H](C)n3cc(CCCN=C(N)N)nn3)CC2)n1
5) C[C@H](NC(=O)c1cccc([N+](=O)[O-])c1)C(=O)OCC(=O)c1ccccc1Br
6) CC(=O)Nc1nc2ccccc2[nH]1
7) O=C(NNC(=O)c1ccccc1Cl)c1ccc2c(c1)OCCO2
8) C[C@@H]1CC[C@]2(C(=O)O)CC[C@]3(C)C(=CCC4[C@]56CC[C@@](O)(OC5)C(C)(C)C6CC[C@]43C)C2[C@H]1C (stereo partly drawn)

Screen / compound no.	1	2	3	4	5	6	7	8
SARS PLpro yeast	9%	-8%	-1%	-16%	-4%	1%	-1%	-2%
RE007 growth inh	-10%	-9%	7%	7%	4%	-12%	-4%	6%
2A StopGo	-12%	?	-2%	-12%	-13%	?	72%[activator]	?

9) CCC1=NN(C(=O)c2ccccc2Br)C(O)(c2ccc(Br)cc2)C1 (stereo not drawn)
10) CCN(CC)C(=O)[C@H]1CC(CC(=O)NCCC2=CCCCC2)C(=O)N2CCc3c([nH]c4ccc(OC)cc34)[C@]12C (stereo partly drawn)
11) COC(=O)C1=C(c2ccc(OC)c(OC)c2)C[C@@H]2CC[C@H]1N2C(=O)NCCc1ccccc1
12) Cc1noc(C)c1N=Nc1ccc(Br)cc1C(=O)O
13) O=C(COC(=O)/C=C/c1ccc(Cl)cc1)NC1CCCCCC1
14) COc1ccccc1C(=O)Nc1ccc(OCC(=O)N2CCCCC2C)cc1 (stereo not drawn)
15) Brc1ccc(-[n+]2c(-c3ccccc3)cc(-c3ccccc3)cc2-c2ccccc2)cc1
16) COc1ccc2sc(-c3ccc(N(C)C)cc3)c(-c3cnc(OC)nc3)c2c1

Screen / compound no.	9	10	11	12	13	14	15	16
SARS PLpro yeast	-6%	9%	0%	1%	-1%	-11%	-8%	0%
RE007 growth inh	21%	-15%	-4%	3%	-13%	0%	-12%	-8%
2A StopGo	-14%	-21%	24%	1%	11%	16%	?	29%

17) Cc1ccccc1NS(=O)(=O)c1ccc(C(=O)N(C)CC(=O)Nc2ccccc2Br)cc1
18) CCN1C(=O)[C@H]2[C@H]3CN=C(SCc4ccc(C(=O)OC)cc4)N3[C@@](CC)(C(=O)OC)[C@H]2C1=O
19) CNC(=S)Nc1ccc([N+](=O)[O-])cc1
20) Cc1ccc(N(Cc2ccccc2)C(=O)c2ccc(C)c(S(=O)(=O)N3CCOCC3)c2)cc1
21) CCOC(=O)C1=C(COC(=O)c2ccco2)NC(=O)NC1CC (stereo not drawn)
22) O=[N+]([O-])c1ccccc1CNCCCCO
23) CN1CCN(CC(O)COc2ccc(S(=O)(=O)N3CCOCC3)cc2)CC1 (stereo not drawn)
24) CSCCC(NS(=O)(=O)c1cc(C(=O)O)ccc1Cl)C(=O)O (stereo not drawn)

Screen / compound no.	17	18	19	20	21	22	23	24
SARS PLpro yeast	1%	6%	0%	2%	1%	-5%	5%	0%
RE007 growth inh	5%	-5%	5%	2%	-5%	-3%	4%	10%
2A StopGo	-13%	-3%	12%	53%[activator]	-14%	7%	-15%	-3%

25) COc1ccc(-c2c(-c3ccc(C#N)cc3)oc(=O)c3cc(OC)c(OC)cc23)cc1
26) COC(=O)C1=C(c2ccc3ccccc3c2)C[C@@H]2CC[C@H]1N2C(=O)N1CCCC1
27) O=C(COC(=O)Cc1n[nH]c(=O)c2ccccc12)Nc1ncc(Cl)cc1Cl
28) COc1ccc(-c2c(C#Cc3ccsc3)c3cc(-c4ccc(C(N)=O)cc4)ccc3n2C)cc1
29) O=C(O)c1cccc2c1C(=O)c1ccc(N3CCCC3)cc1S2(=O)=O
30) O=C(CSc1nnc(NC(=O)C2CC2)s1)NCc1cccs1
31) CCOc1cccc(C2C(C(=O)c3ccco3)=C(O)C(=O)N2c2nnc(C)s2)c1 (stereo not drawn)
32) CCN(CC)c1ccc(/C=N/NC(=S)NC)c(O)c1

Screen / compound no.	25	26	27	28	29	30	31	32
SARS PLpro yeast	-9%	1%	3%	5%	0%	-1%	1%	29%
RE007 growth inh	15%	10%	-4%	11%	5%	1%	-6%	-28%
2A StopGo	-25%	?	-12%	0%	60%[activator]	24%	14%	47%[activator]

33) COC(=O)[C@]1(Cc2ccccc2)N[C@H](CN(C)S(=O)(=O)c2ccc(C(C)(C)C)cc2)[C@@H]2C(=O)N(Cc3ccccc3)C(=O)[C@@H]21
34) Cc1csc(SCC(=O)NC(=O)C2CCCCC2)n1
35) COc1ccc(Cc2noc(-c3ccccc3)n2)cc1OC
36) NS(=O)(=O)c1cccc(NC(=O)COC(=O)CCC(=O)c2cccs2)c1
37) CCc1ccc(C(=O)NNC(=O)c2ccc(OCC(=O)N3CCOCC3)c(OC)c2)cc1
38) CCN(CC)c1ccc(/C=N/O)cc1
39) COc1ccc(C(=O)COC(=O)c2nc3nccc(C)n3n2)cc1F
40) CC(C)(C)N(Cc1ccccc1)C(=O)COC(=O)CNS(=O)(=O)c1ccc2ccccc2c1

Screen / compound no.	33	34	35	36	37	38	39	40
SARS PLpro yeast	2%	1%	-1%	0%	0%	0%	2%	-8%
RE007 growth inh	-4%	-2%	2%	-1%	-22%	6%	-2%	7%
2A StopGo	-20%	25%	-20%	-13%	-21%	20%	8%	21%

# 12 entries already listed, ordered by count of non-hydrogen atoms, largest number first.
33) COC(=O)[C@]1(Cc2ccccc2)N[C@H](CN(C)S(=O)(=O)c2ccc(C(C)(C)C)cc2)[C@@H]2C(=O)N(Cc3ccccc3)C(=O)[C@@H]21
28) COc1ccc(-c2c(C#Cc3ccsc3)c3cc(-c4ccc(C(N)=O)cc4)ccc3n2C)cc1
40) CC(C)(C)N(Cc1ccccc1)C(=O)COC(=O)CNS(=O)(=O)c1ccc2ccccc2c1
37) CCc1ccc(C(=O)NNC(=O)c2ccc(OCC(=O)N3CCOCC3)c(OC)c2)cc1
25) COc1ccc(-c2c(-c3ccc(C#N)cc3)oc(=O)c3cc(OC)c(OC)cc23)cc1
26) COC(=O)C1=C(c2ccc3ccccc3c2)C[C@@H]2CC[C@H]1N2C(=O)N1CCCC1
27) O=C(COC(=O)Cc1n[nH]c(=O)c2ccccc12)Nc1ncc(Cl)cc1Cl
36) NS(=O)(=O)c1cccc(NC(=O)COC(=O)CCC(=O)c2cccs2)c1
39) COc1ccc(C(=O)COC(=O)c2nc3nccc(C)n3n2)cc1F
35) COc1ccc(Cc2noc(-c3ccccc3)n2)cc1OC

Screen / compound no.	33	28	40	37	25	26	27	36	39	35
SARS PLpro yeast	2%	5%	-8%	0%	-9%	1%	3%	0%	2%	-1%
RE007 growth inh	-4%	11%	7%	-22%	15%	10%	-4%	-1%	-2%	2%
2A StopGo	-20%	0%	21%	-21%	-25%	?	-12%	-13%	8%	-20%

32) CCN(CC)c1ccc(/C=N/NC(=S)NC)c(O)c1
38) CCN(CC)c1ccc(/C=N/O)cc1

Screen / compound no.	32	38
SARS PLpro yeast	29%	0%
RE007 growth inh	-28%	6%
2A StopGo	47%[activator]	20%

# Continuation.
41) COC(=O)[C@]1(C)N[C@H](c2ccc(-c3cccc(Cl)c3)c(OC)c2)[C@@H]2C(=O)N(C)C(=O)[C@@H]21
42) CN1CCN(c2ccc(S(=O)(=O)N3CCCCC3)cc2NC(=O)CCc2ccccc2)CC1
43) CCOC(=O)c1cc(-c2ccc(OC)cc2)n(CCC(=O)NC2CCN(Cc3ccccc3)CC2)c1C
44) Cc1cc(-n2c(C)cc(C(=O)COc3ccc(F)c(F)c3)c2C)no1
45) CCOc1cc(/C=N/NC(=O)c2ccccc2-n2cccc2)ccc1O
46) CCOC(=O)C1CCCN(CC(=O)N(C)c2c(N)n(Cc3ccccc3)c(=O)[nH]c2=O)C1 (stereo not drawn)
47) COc1cccc(CN(C)C(=O)C2CCN(S(=O)(=O)c3cccs3)CC2)c1OC
48) Cc1ccc(CN2CC[C@H]3C=CCc4cccc(c43)C2)cc1

Screen / compound no.	41	42	43	44	45	46	47	48
SARS PLpro yeast	-3%	3%	2%	1%	1%	-1%	3%	1%
RE007 growth inh	6%	-1%	4%	-2%	-2%	-2%	-7%	-18%
2A StopGo	-26%	-2%	-2%	44%[activator]	-16%	-1%	-14%	0%

49) CCOc1ccc(C(=O)COC(=O)c2nn(CC)c(=O)c3ccccc23)cc1
50) C/C(=N\NC(=O)COc1cccc(Br)c1)c1ccc2c(c1)OCCO2
51) CCOc1ccc(NC(=O)COC(=O)c2cc(=O)c3ccccc3o2)cc1
52) CC(C)=CCN1CC[C@@]2(C)c3cc(O)ccc3C[C@@H]1C2C (stereo partly drawn)

Screen / compound no.	49	50	51	52
SARS PLpro yeast	1%	16%	6%	-2%
RE007 growth inh	23%	3%	7%	-11%
2A StopGo	-11%	8%	-10%	-22%

# Retrieved by compound from the entries so far (two):
50) C/C(=N\NC(=O)COc1cccc(Br)c1)c1ccc2c(c1)OCCO2
51) CCOc1ccc(NC(=O)COC(=O)c2cc(=O)c3ccccc3o2)cc1

Screen / compound no.	50	51
SARS PLpro yeast	16%	6%
RE007 growth inh	3%	7%
2A StopGo	8%	-10%
